Vaccinia inh – Vaccinia orthopox stage-specific inhibition. Vaccinia-infected cells, mCherry/Venus stage reporter fluorescence; active compounds read low; some inactives read as strong as hits. activity change (mCherry), % (concentration not given with the values). actives 0.01% (n = 89,000);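 active = mCherry past -33% and 40 or more points under the early reporter, replicates agreeing; inconclusive = past -33% without that gap or agreement; tested in A549 cells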;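 also: scaled between vehicle wells and reference inhibitor wells; 23 nL library stock went into each well; one replicate is shown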
Vaccinia inh Venus – recorded beside Vaccinia inh, whose call it bears; activity change (Venus), %; measured here: Venus reporter, other viral stage;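 negative = less Venus signal; first of two replicates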
* = called active by the depositor; ? = inconclusive; . = not tested or not shown; & = joins results of further samples. An excerpt. The share of hits here may be higher or lower than overall.

1	C[C@@H]1CN([C@@H](C)CO)C(=O)Cc2cc(NC(=O)C3CCCCC3)ccc2O[C@H]1CN(C)C(=O)Nc1ccc2c(c1)OCO2
2	COCC(=O)N(C)C[C@H]1[C@H](c2ccccc2)[C@@H](CO)N1C(=O)NC(C)C
3	C[C@@H]1CCCCO[C@@H](CN(C)S(=O)(=O)c2ccccc2)[C@H](C)CN([C@@H](C)CO)C(=O)c2cc(NC(=O)C3CCCCC3)ccc2O1
4	COc1ccccc1C#Cc1cnc2c(c1)C(=O)N([C@@H](C)CO)C[C@@H](C)[C@@H](CN(C)C)O2
5	CO[C@H]1CN(C)C(=O)c2ccc(NC(=O)C3CC3)cc2OC[C@H](C)N(Cc2cccnc2)C[C@H]1C
6	CC(C)NC(=O)N[C@@H]1CC[C@@H](CC(=O)NCc2ccc(Oc3ccccc3)cc2)O[C@H]1CO

screen / no.	1	2	3	4	5	6
Vaccinia inh Venus	2	6	-12	-17	3	10
Vaccinia inh	1	10	-24	-14	3	9

7	Cc1noc(C)c1S(=O)(=O)Nc1ccc2c(c1)C(=O)N([C@H](C)CO)C[C@H](C)[C@@H](CN(C)C(=O)Nc1ccc(F)cc1)OCCCC[C@@H](C)O2
8	COc1ccc(S(=O)(=O)Nc2ccc3c(c2)C(=O)N([C@H](C)CO)C[C@H](C)[C@H](CN(C)C(=O)CCC(F)(F)F)OCCCC[C@@H](C)O3)cc1
9	C/C=C/c1ccc2c(c1)O[C@H](CN(C)C(=O)CN1CCOCC1)[C@H](C)CN([C@H](C)CO)S2(=O)=O
10	C[C@@H]1CN([C@H](C)CO)C(=O)c2cc(NC(=O)c3ccncc3)ccc2O[C@@H]1CN(C)C
11	COc1ccc(CN(C)C[C@H]2OCCCC[C@H](C)Oc3ccc(NS(=O)(=O)c4ccc(C)cc4)cc3C(=O)N([C@H](C)CO)C[C@@H]2C)cc1
12	CO[C@H]1CN(C)C(=O)c2cc(NC(=O)Nc3cccc(F)c3)ccc2OC[C@@H](C)NC[C@H]1C

screen / no.	7	8	9	10	11	12
Vaccinia inh Venus	4	15	15	1	.	1
Vaccinia inh	15	17	19	6	?	-3

Grouped by structure: the entries above containing fluorine (three)
7	Cc1noc(C)c1S(=O)(=O)Nc1ccc2c(c1)C(=O)N([C@H](C)CO)C[C@H](C)[C@@H](CN(C)C(=O)Nc1ccc(F)cc1)OCCCC[C@@H](C)O2
8	COc1ccc(S(=O)(=O)Nc2ccc3c(c2)C(=O)N([C@H](C)CO)C[C@H](C)[C@H](CN(C)C(=O)CCC(F)(F)F)OCCCC[C@@H](C)O3)cc1
12	CO[C@H]1CN(C)C(=O)c2cc(NC(=O)Nc3cccc(F)c3)ccc2OC[C@@H](C)NC[C@H]1C

screen / no.	7	8	12
Vaccinia inh Venus	4	15	1
Vaccinia inh	15	17	-3

(further entries)
13	COc1cccc(-c2cnc3c(c2)C(=O)N([C@H](C)CO)C[C@H](C)[C@@H](CN(C)C(=O)CN(C)C)O3)c1
14	C[C@@H]1CCCCO[C@@H](CN(C)Cc2ccc3c(c2)OCO3)[C@H](C)CN([C@@H](C)CO)C(=O)c2cc(NC(=O)c3ccncc3)ccc2O1
15	CCNC(=O)Nc1ccc2c(c1)C(=O)N(C)[C@H]1CC[C@@H](CC(=O)NCc3ccc(F)cc3)O[C@H]1CO2
16	CO[C@@H]1CN(C)C(=O)c2ccc(NS(=O)(=O)c3ccc(C)cc3)cc2OC[C@H](C)NC[C@@H]1C
17	O=C(O)C[C@@H]1C[C@H]2c3cc(NC(=O)NC4CCCC4)ccc3O[C@H]2[C@H](CO)O1
18	C[C@H]1CN([C@@H](C)CO)C(=O)c2cc(C#CCN(C)C)cnc2O[C@@H]1CN(C)Cc1ccc(-c2ccccc2)cc1

screen / no.	13	14	15	16	17	18
Vaccinia inh Venus	8	-6	3	5	5	.
Vaccinia inh	17	3	9	5	-1	?

19	CC(C)NC(=O)N(C)C[C@H]1Oc2ccc(NS(=O)(=O)c3ccc(Cl)cc3)cc2C(=O)N([C@@H](C)CO)C[C@H]1C
20	C[C@H]1CN([C@@H](C)CO)C(=O)Cc2cc(NC(=O)Nc3ccc4c(c3)OCO4)ccc2O[C@H]1CN(C)Cc1ccc(C(=O)Nc2ccccc2N)cc1
21	C[C@@H]1CN([C@H](C)CO)C(=O)c2cc(NC(=O)C3CCCCC3)ccc2O[C@@H]1CN(C)S(=O)(=O)c1ccc(Cl)cc1
22	COc1ccc(S(=O)(=O)N2C[C@H](O)COC[C@H]3O[C@H](CC(=O)NCCN4CCCCC4)CC[C@@H]32)cc1
23	COCC(=O)Nc1ccc2c(c1)[C@@H]1C[C@@H](CC(=O)NCc3cccc(F)c3)O[C@@H](CO)[C@@H]1O2
24	COC(=O)[C@H]1[C@H](CO)[C@H]2Cn3c(ccc(-c4ccccc4OC)c3=O)[C@H]2N1CC1CCCCC1

screen / no.	19	20	21	22	23	24
Vaccinia inh Venus	10	9	-13	-5	2	-30
Vaccinia inh	-1	3	-19	7	4	-33

25	O=C(C[C@@H]1CC[C@@H]2[C@H](COC[C@H](O)CN2Cc2ccc3c(c2)OCO3)O1)N1CCOCC1
26	CC(C)NC(=O)Nc1cccc2c1O[C@@H](CN(C)C(=O)NC(C)C)[C@@H](C)CN([C@H](C)CO)C2=O
27	O=C(C[C@H]1CC[C@H]2[C@@H](COC[C@@H](O)CN2S(=O)(=O)c2ccc(F)cc2)O1)NCc1ccncn1
28	O=C(C[C@H]1CC[C@H]2[C@@H](COC[C@@H](O)CN2S(=O)(=O)c2cccc(F)c2)O1)NCc1ccncn1
29	C[C@@H]1CN([C@H](C)CO)S(=O)(=O)c2ccc(-c3cncnc3)cc2O[C@H]1CN(C)Cc1cncnc1
30	CC(C)CC#Cc1ccc2c(c1)O[C@@H](CN(C)C(=O)Nc1ccccc1)[C@H](C)CN([C@@H](C)CO)S2(=O)=O

screen / no.	25	26	27	28	29	30
Vaccinia inh Venus	15	0	8	7	9	-15
Vaccinia inh	21	3	14	-1	6	-28

31	C[C@H]1CN([C@@H](C)CO)C(=O)c2c(c3ccccc3n2C)-c2ccccc2CO[C@@H]1CN(C)C(=O)c1ccc(F)cc1
32	C[C@H](CO)N1C[C@H](C)[C@H](CN(C)C(=O)Nc2ccccc2)Oc2c(NC(=O)Nc3ccc(C(F)(F)F)cc3)cccc2C1=O
33	COc1cccc(NC(=O)N(C)C[C@H]2Oc3cc(/C=C/c4ccccc4)ccc3S(=O)(=O)N([C@H](C)CO)C[C@@H]2C)c1
34	O=C(C[C@@H]1CC[C@@H](NS(=O)(=O)c2ccc(F)cc2)[C@@H](CO)O1)NC1CCCCC1
35	C[C@@H]1CN([C@H](C)CO)C(=O)CCCn2cc(nn2)CO[C@H]1CN(C)C(=O)Nc1cccc2ccccc12
36	COc1ccc(NC(=O)Nc2ccc3c(c2)CC(=O)N([C@@H](C)CO)C[C@H](C)[C@H](CN(C)C(=O)Nc2ccc(OC)cc2)O3)cc1

screen / no.	31	32	33	34	35	36
Vaccinia inh Venus	-16	.	.	-6	20&24	11
Vaccinia inh	-7	?	?	-3	41&25	5

37	C[C@H]1CN([C@@H](C)CO)C(=O)c2cc(NC(=O)Nc3ccc(C(F)(F)F)cc3)ccc2O[C@@H]1CN(C)Cc1ccncc1
38	CC(C)C#Cc1ccc([C@@H]2[C@@H](CO)N3CCCCN(C(=O)c4ccc(F)cc4)C[C@@H]23)cc1
39	C[C@H]1CN([C@@H](C)CO)S(=O)(=O)c2ccc(C#Cc3ccc(F)cc3)cc2O[C@@H]1CN(C)C
40	C[C@H]1CN([C@@H](C)CO)S(=O)(=O)c2ccc(C#Cc3ccc(F)cc3)cc2O[C@@H]1CN(C)S(=O)(=O)c1cn(C)cn1
41	COc1ccc(S(=O)(=O)N[C@H]2CC[C@H](CCNC(=O)CN3CCOCC3)O[C@@H]2CO)cc1
42	CC(=O)N1CC2(C1)[C@H](c1ccc(-c3ccc(F)cc3)cc1)[C@H](CO)N2C(C)=O

screen / no.	37	38	39	40	41	42
Vaccinia inh Venus	.	-4	.	.	9	6
Vaccinia inh	?	7	?	?	-2	3

43	C[C@H](CO)N1C[C@H](C)[C@@H](CN(C)Cc2ccccn2)Oc2ncc(C3=CCCC3)cc2C1=O
44	COCC(=O)N1CC[C@@H]2[C@H](CO)Nc3ccc(C#Cc4ccc(F)cc4)cc3[C@@H]21
45	CCCN1C[C@H](C)[C@@H](OC)CN(C)C(=O)c2cc(NC(=O)Nc3c(C)noc3C)ccc2OC[C@H]1C
46	COc1ccccc1CNC(=O)C[C@@H]1C[C@H]2c3cc(NC(=O)CN(C)C)ccc3O[C@H]2[C@H](CO)O1
47	COc1ccc(S(=O)(=O)N(C)C[C@@H]2Oc3c(NC(=O)c4cc(C)nn4C)cccc3C(=O)N([C@@H](C)CO)C[C@@H]2C)cc1
48	CC(C)NC(=O)N(C)C[C@H]1Oc2ccc(NC(=O)Cc3ccccc3)cc2C(=O)N([C@H](C)CO)C[C@@H]1C

screen / no.	43	44	45	46	47	48
Vaccinia inh Venus	16	10	1	-6	5	5
Vaccinia inh	20	7	7	1	-4	11

49	O=C(C[C@@H]1C=C[C@@H](NS(=O)(=O)c2ccc(F)cc2)[C@H](CO)O1)N1CCN(c2ccccc2)CC1
50	C[C@@H]1CN([C@@H](C)CO)C(=O)c2cccc(NS(=O)(=O)c3ccccc3)c2O[C@@H]1CN(C)C
51	CN1CCN(C(=O)C[C@@H]2CC[C@H]3[C@@H](COc4ccc(NC(=O)c5ccc(F)c(F)c5)cc4C(=O)N3C)O2)CC1
52	C[C@H](CO)N1C[C@H](C)[C@H](CN(C)Cc2ccc(C(=O)O)cc2)Oc2ccc(NS(=O)(=O)c3ccccc3)cc2CC1=O
53	Cc1noc(C)c1S(=O)(=O)Nc1ccc2c(c1)C(=O)N([C@H](C)CO)C[C@@H](C)[C@H](CN(C)C)O2
54	C[C@@H]1CN([C@@H](C)CO)C(=O)c2cc(NC(=O)Cn3cnnn3)ccc2O[C@@H]1CN(C)C(=O)Nc1ccc2c(c1)OCO2

screen / no.	49	50	51	52	53	54
Vaccinia inh Venus	1	3	-4	2	5	18
Vaccinia inh	-5	14	-2	4	13	39

55	COc1ccccc1-c1cnc2c(c1)C(=O)N([C@@H](C)CO)C[C@H](C)[C@@H](CN(C)C(=O)c1ccncc1)O2
56	CCC(=O)N1CCCCN2[C@H](C1)[C@H](c1ccc(-c3cccc(C#N)c3)cc1)[C@@H]2CO
57	CCCNC(=O)N1[C@@H]2CN(C(=O)c3cccnc3)c3ccccc3[C@@H]2[C@@H]1CO
58	CS(=O)(=O)N1CC(=O)N2[C@H](CO)[C@H](c3ccc(C#CCc4ccccc4)cc3)[C@@H]2C1
59	CCCC#Cc1ccc2c(c1)O[C@H](CN(C)Cc1cccnc1)[C@@H](C)CN([C@@H](C)CO)S2(=O)=O
60	C[C@H]1CN([C@@H](C)CO)C(=O)c2cc(C3=CCCC3)cnc2O[C@@H]1CN(C)C(=O)c1ccccn1

screen / no.	55	56	57	58	59	60
Vaccinia inh Venus	-4	-18	4	2	.	17
Vaccinia inh	9	-13	8	33	?	8

61	C/C=C/c1ccc2c(c1)[C@@H]1[C@@H](CCN1S(=O)(=O)c1ccccc1C)[C@H](CO)N2
62	CCC(=O)N1[C@H](C(=O)NC2CCC2)[C@@H](CO)[C@@H]2Cn3c(ccc(C4=CCCC4)c3=O)[C@@H]21
63	CO[C@@H]1CN(C)C(=O)c2cc(NC(=O)c3ccccc3F)ccc2OC[C@H](C)N(C)C[C@H]1C
64	C[C@H]1CN([C@@H](C)CO)C(=O)c2c(c3ccccc3n2C)-c2ccccc2CO[C@H]1CN(C)Cc1cccc(C(=O)O)c1
65	O=C(c1cccc(F)c1)N1CC2(C1)[C@H](c1ccccc1)[C@H](CO)N2C(=O)C1CCOCC1
66	COc1ccc(NC(=O)N(C)C[C@H]2Oc3ccc(NC(=O)C4CC4)cc3CC(=O)N([C@H](C)CO)C[C@@H]2C)cc1

screen / no.	61	62	63	64	65	66
Vaccinia inh Venus	4	19	1	2	12	-3
Vaccinia inh	-14	15	3	13	8	-2

67	COc1ccc(NC(=O)N(C)C[C@@H]2Oc3cc(C#CCC(C)C)ccc3S(=O)(=O)N([C@@H](C)CO)C[C@@H]2C)cc1
68	C[C@@H]1CN([C@H](C)CO)C(=O)c2cc(NS(=O)(=O)c3ccccc3)ccc2O[C@@H](C)CCCCO[C@@H]1CN(C)CC1CCCCC1
69	COc1ccccc1NC(=O)N(C)C[C@@H]1Oc2cc(Br)ccc2S(=O)(=O)N([C@H](C)CO)C[C@@H]1C
70	CNC[C@@H]1Oc2cc(C#Cc3cccc(F)c3)ccc2S(=O)(=O)N([C@@H](C)CO)C[C@H]1C
71	COc1ccc2c3c([nH]c2c1)[C@H](CO)NCC31CCN(C(=O)Nc2ccc(F)cc2F)CC1
72	O=C(C1CCOCC1)N1[C@H](CO)[C@@H](c2ccccc2)C12CN(Cc1cccc(Cl)c1)C2
73	COc1ccc(OC(=O)N(C)C[C@@H]2OCc3cn(nn3)CCCC(=O)N([C@@H](C)CO)C[C@@H]2C)cc1
74	C/C=C/c1ccccc1[C@H]1[C@@H](C#N)N(C(C)=O)[C@@H]1CO

screen / no.	67	68	69	70	71	72	73	74
Vaccinia inh Venus	.	.	0	.	-4	3	0	7
Vaccinia inh	?	?	-22	?	-7	1	-3	7

Screening data from PubChem BioAssay.
